TRPV1 PAM: HTS Assay for Compounds that Act as Potentiators of the Vanilloid Receptor 1; Transient receptor potential cation channel subfamily V member 1 (Homo sapiens), Q8NER1; TRPV1-expressing cells, Fluo-8 calcium influx, capsaicin EC20 potentiation; host cell line not named in the record; control for the full effect not named in the record; potentiation, % at 8.33 µM; actives 0.02% (n = 320,000); AID 540277, 2011; active means potentiation above 80%; inconclusive means 30% to 80%; inactive means below 30%; further: 0% is about no effect
Target sequence (Q8NER1 whole entry, looked up): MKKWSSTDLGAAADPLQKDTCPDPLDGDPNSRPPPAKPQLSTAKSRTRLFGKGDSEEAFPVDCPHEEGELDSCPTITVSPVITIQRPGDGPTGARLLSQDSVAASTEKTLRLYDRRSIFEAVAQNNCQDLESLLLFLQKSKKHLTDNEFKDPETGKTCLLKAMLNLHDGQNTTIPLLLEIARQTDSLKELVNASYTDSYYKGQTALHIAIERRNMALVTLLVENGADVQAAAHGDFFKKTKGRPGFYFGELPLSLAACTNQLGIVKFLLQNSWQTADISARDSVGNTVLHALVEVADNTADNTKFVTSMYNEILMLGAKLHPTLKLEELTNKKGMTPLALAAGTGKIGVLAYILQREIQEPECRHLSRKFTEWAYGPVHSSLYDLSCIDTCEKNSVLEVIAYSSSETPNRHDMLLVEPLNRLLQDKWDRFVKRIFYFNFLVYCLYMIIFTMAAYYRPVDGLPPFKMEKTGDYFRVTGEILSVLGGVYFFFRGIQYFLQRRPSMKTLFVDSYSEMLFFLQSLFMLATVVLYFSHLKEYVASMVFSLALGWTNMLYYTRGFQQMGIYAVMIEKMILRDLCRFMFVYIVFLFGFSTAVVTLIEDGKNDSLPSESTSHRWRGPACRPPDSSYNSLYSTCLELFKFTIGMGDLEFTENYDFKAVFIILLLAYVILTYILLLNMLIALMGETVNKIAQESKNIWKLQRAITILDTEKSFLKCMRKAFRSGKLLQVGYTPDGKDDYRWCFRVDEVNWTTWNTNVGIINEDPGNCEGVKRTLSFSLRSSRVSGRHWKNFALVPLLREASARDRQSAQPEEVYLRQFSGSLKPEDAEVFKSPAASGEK
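Fluo-8 calcium influx in TRPV1-expressing cells, kinetic read (ex 480/em 520 nm). Compound added and read 3 min for agonist activity, followed by capsaicin at EC20 final and 2 min further read for enhancement.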
D2 PAM: Beta-Arrestin HTS for Positive Allosteric Modulators of the Human D2 Dopamine Receptor: Potentiators. D(2) dopamine receptor (Homo sapiens), P14416. actives 0.23% (n = 360,000). potentiation, % (concentration not given with the values). DiscoveRx D2 beta-arrestin cells, luminescence, 90 min; 100% = 57 uM dopamine signal; active = potentiation of 50% or more; inconclusive = 30% to 50%; inactive = 30% or less;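 further: compound concentration not given in the record; tested on top of an EC20 dose of dopamine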
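D2 cells co-treated with compound plus 50 nM dopamine (EC20) for 90 min at 37 deg C to detect potentiation. Beta-arrestin recruitment was read as enzyme-fragment luminescence after 1 h at ambient temperature. Full response was set by 57 uM dopamine.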
Sfp PPTase inh: qHTS Assay for Inhibitors of Bacillus subtilis Sfp phosphopantetheinyl transferase (PPTase); 4'-phosphopantetheinyl transferase ffp (Bacillus subtilis), Q9F4F7; Biochemical Sfp PPTase activity, qHTS; Potency, µM, for inactives: max response, negative = inhibition, actives largely listed as inhibitors; actives 3.5% (n = 310,000); active means well fitted inhibition curve with a large enough effect; inconclusive means small, poorly fitted or top-dose-only effect, or another doubt; inactive means no such curve, though single readings can be large or run the other way;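 further: the enzyme is Sfp with the accession as filed and its product quenches rhodamine fluorescence; potency means the concentration at half of the fitted maximal effect; 0% = enzyme reaction without inhibitor and -100% = no enzyme wells; top concentration of the series not given in the record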
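Fluorescence-quenching assay with 15 nM Sfp, 5 uM rhodamine-CoA and 12.5 uM BHQ-2-labelled ybbR peptide in pH 7.6 Hepes/MgCl2 buffer. Enzyme was pre-incubated with compound for 15 min at room temperature. Rate was taken from the 30-min fluorescence change (525/598 nm).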
PINK1 expr mod: A Quantitative High throughput Screen to Identify Chemical Modulators of PINK1 Expression. actives 0.2% (n = 410,000). AID 624263, 2012. Potency, µM (doses to about 76.6 µM), without a hit: at the top dose activation (PINK1 increase), usual class: activators. PINK1 immunofluorescence, high-content cytometry, 24 h; active = well fitted activation curve with a large enough effect; inconclusive = small, poorly fitted or top-dose-only effect; inactive = flat fitted curve, though single readings scatter; cell line not stated here;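 further: potency means the concentration at half of the fitted maximal effect; % of control where 0% means no effect; nearly all actives have a fitted effect of over 65% in size; a mitochondrial uncoupler was the plate control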
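Readout is PINK1 immunofluorescence, quantified alongside mitochondrial, cell and nuclear markers by laser-scanning microplate cytometry. Cells from a stable line were exposed to compound titrations (5 concentrations) for 24 hours, with CCCP controls.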
D2 ag: Beta-Arrestin HTS for Positive Allosteric Modulators of the Human D2 Dopamine Receptor: Agonists. D(2) dopamine receptor (Homo sapiens), P14416. DiscoveRx PathHunter D2 beta-arrestin, luminescence, 90 min; 100% = 57 uM dopamine signal. activation, % (test concentration not listed). actives 0.084% (n = 360,000); in the data active = activation above about 40%; inconclusive = about 15% to 40%; inactive = below about 15%; further: compound concentration not given in the record; the text of the record calls up to 30% inactive
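Agonist mode: compounds alone added to overnight-plated D2 PathHunter cells for 90 min at 37 C, with 57 uM final dopamine (EC100) defining full response. Beta-arrestin recruitment detected by chemiluminescent reagent, read after 1 h at ambient temperature.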
CtBP-E1A blk: qHTS Assay for Inhibitors of the CtBP/E1A Interaction. CtBP / adenovirus E1A interaction (AlphaScreen). AlphaScreen GST-E1A/His-CtBP binding, 1536-well; stronger effect = lower value; control for the full effect not named in the record. activity change, % (no concentration beside the values). actives 0.49% (n = 340,000); in the data active means activity change below about -65%; inconclusive means about -30% to -65%; inactive means above about -30%; further: on the % scale 0 is the no-effect control and ±100 the full control effect; compound concentration not given in the record
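GST-E1A and His-tagged CtBP (125 nM each as 5X stock) were preincubated with pin-transferred compound for 2 h at 37 °C in the dark, then glutathione donor and nickel acceptor beads were added for 1 h before AlphaScreen reading.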
Six1-Eya2 inh: qHTS Assay for Inhibitors of the Six1/Eya2 Interaction; Homeobox protein SIX1 (Homo sapiens) + Protein phosphatase EYA2 (Homo sapiens), …; AlphaScreen GST-Six1/His-Eya2 binding, biochemical; stronger effect = lower value; control for the full effect not named in the record; activity change, % (no concentration beside the values); actives 0.56% (n = 360,000); AID 651725, 2012; in the data active = activity change below about -65%; inconclusive = about -30% to -65%; inactive = above about -30%; further: on the % scale 0 is the no-effect control and ±100 the full control effect; compound concentration not given in the record
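Homogeneous AlphaScreen proximity assay pairing GST-Six1 with His-tagged Eya2 (added as 5X mix: 250 nM and 500 nM) in 50 mM Tris pH 8.0, 300 mM NaCl, 1 mM TCEP. Glutathione donor and nickel acceptor beads; 1 h, 37 °C, dark.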
* hit, by the source's call; ? = inconclusive; . = not tested or not shown; & = joins results of further samples; [ ] = dose if it differs, or a comment.

SMILES	TRPV1 PAM	D2 PAM	Sfp PPTase inh	PINK1 expr mod	D2 ag	CtBP-E1A blk	Six1-Eya2 inh
O=C(OCC(=O)N1CCN(c2ccccc2)CC1)c1ccccc1OC(F)F	14	-5	.	-0.2%	-4.3	9	1
O=C(Cn1ncc2c([nH]c3ccccc32)c1=O)NCC1CCN(Cc2ccc(F)cc2)CC1	-2	-6	6%	1.0%&1.9%	0.4	6	8
C[C@H](CO)N1C[C@H](C)[C@@H](CN(C)S(=O)(=O)c2ccccc2)Oc2ccc(NC(=O)Cn3cnnn3)cc2C1=O	.	0	.	0.4%	0.1	5	0
O=C(NCc1nnnn1-c1ccc(Cl)cc1)c1ccc([N+](=O)[O-])o1	.	19	.	4.0%	9.9	24	12
O=C(Nc1ccc(S(=O)(=O)Nc2ncccn2)cc1)c1cc([N+](=O)[O-])ccc1Cl	-6	11	13%	0.9%	3.1	.	-1
C[C@]12C(=O)N(c3cccc(F)c3)C(=O)N1[C@H]1c3ccccc3OC[C@@H]1[C@H]2c1ccccc1	.	3	.	8.2%	-3.4	-6	-16
Cc1ccccc1OCC(O)CN(CCO)Cc1ccccc1 (centres undefined)	-3	-4	10%	-0.2%	-1.0	2	2
COC(=O)c1cnn(C(=O)c2ccccc2Br)c1N	13	-19	12%	-1.1%[38.3 µM]	-1.9	-2	4
COc1ccc(CCNC(=O)CN2c3cccc4cccc(c34)S2(=O)=O)cc1	0	2	.	-2.2%	0.6	9	10
O=C(NCc1ccc(F)cc1)c1ccc[nH]1	5	-2	7%	2.8%	-3.8	3	14
Cc1c(C(=O)N2CCOCC2)c(S(=O)(=O)Nc2ccc(F)cc2)c(C)n1C	-11	-5	17%	1.0%	12	3	1
CC(=O)c1cccc(Nc2nc(-c3cccnc3)cs2)c1	-6	2	-9%	0.3%	-1.9	?	-21
CC(C)(C)NC(=O)c1cc(-c2ccccc2)n[nH]1	-6	-2	21%	0.0%	3.0	-13	-12
COc1ccc(CN(C)c2ncnc(N)n2)cc1	11	6	10%	2.4%	-1.4	-2	10
COc1ccc(Nc2nccc3c2ncn3C)cc1	.	-6	.	0.6%	-3.8	-10	-3
CCc1cccc(C)c1NC(=O)COC(=O)c1ccc2c(c1)S(=O)(=O)c1ccccc1C2=O	7	12	-16%	11%	0.7	-3	11
CC(C)NC(=O)c1onc(CSc2cccc(F)c2)c1C(=O)O	2	-23	-5%	0.9%	-2.4	2	0
CCOC(=O)CNS(=O)(=O)c1cc(-c2nn(C)c(=O)c3ccccc23)ccc1C	.	1	11%	0.0%	-0.3	0	-1
Cc1ccc2oc(-c3cccc(NC(=S)NC(=O)/C=C/c4ccco4)c3)nc2c1	-5	-7	-25%	5.5%	-3.3	-9	-15
CCCCCCC(=O)N=Nc1c(O)[nH]c2ccc([N+](=O)[O-])cc12	7	-2	-2%	0.5%	-7.6	0	-3
CCC(Sc1nc2ccncc2[nH]1)C(=O)Nc1cc(Cl)ccc1C (centres undefined)	-16	16	0%	0.7%&-0.3%	-2.7	0	-7
O=C(/C=C/c1ccc([N+](=O)[O-])cc1)NNC(=O)C1CC1	5	6	2%	1.1%	1.0	1	2
COc1ccc(N2CCN(Cc3cc(=O)oc4ccc5ccccc5c34)CC2)cc1	19	1	4%	-0.6%	0.6	12	-25
COc1ccc(C(=O)c2ccc(OC)c3cccc(O)c23)cc1OC	20	73*	-17%	-1.2%	4.2	-3	-15
COc1ccc(CC(=O)NCCN2CCCC2)cc1	4	-24	10%	-0.1%	1.0	-4	8
CCOC(=O)c1cc(C#N)c(SCc2ccc(C#N)cc2)nc1C	-13	-5	-2%	2.9%	-1.1	3	6
CCCC1CCC(C2=N/C(=C\c3ccc(OC)c(OC)c3)C(=O)O2)CC1 (centres undefined)	0	5	2%	0.3%	-1.2	6	3
CCOC(=O)c1c(NC(=O)COc2ncnc3ccccc23)sc(C)c1CC	-9	9	2%	4.2%	-4.4	-5	-6
CCCCC1=CC2=CC(=O)C(C)(OC(=O)CC)C(=O)C2=CN1CCN1CCOCC1 (centres undefined)	19	12	14%&-2%	4.4%	4.3	-1	5
O=C(C1CCN(C2CCN(C/C(Cl)=C/c3ccccc3)CC2)CC1)N1CCOCC1	-12	-5	8%	-0.8%	4.2	.	3
Cc1cc(C)nc(-n2ncc3c2CC(c2ccccc2C)CC3=O)n1 (centres undefined)	-28	-9	13%	0.0%	-5.1	.	-4
CCc1ccc(OCCNC(=O)c2ccc(S(=O)(=O)N(C)C)cc2)cc1	-8	-8	-1%	-5.4%[38.3 µM]	-0.3	12	2
COC(=O)C(C)NC(=O)C1CCCN1S(=O)(=O)c1cc(C)c(Cl)cc1C (centres undefined)	-10	-6	1%	-2.7%	-3.9	0	8
O=C(O)CCCCCNc1ccc2nsnc2c1[N+](=O)[O-]	13	-23	89µM*	0.5%	-3.6	-8	-11
CNc1nc(C)c(C(=O)c2ccc(Cl)cc2)s1	-2	8	16%	-2.8%	-1.2	-2	-1
COc1cc(NC(=O)c2cccc(Cl)c2)ccc1NC(=O)c1cccs1	4	-12	10%	5.1%	-3.9	-15	-11
CCOC(=O)COc1ccc2c(c1)C(=O)CC(C)(c1cccnc1)O2 (centres undefined)	0	-12	1%	4.1%[38.3 µM]	-4.3	5	0
COc1ccc(C=C(C#N)C#N)c(CSc2ccccn2)c1	9	-5	-4%	3.9%	2.5	.	1
COc1ccc(/C(C)=N/NC(=O)C2C3CCCCC32)c(OC)c1 (centres undefined)	15	-6	17%	-1.2%	-5.8	-2	-8
O=C(NCCc1cccs1)Nc1ccc2nc([C@@H]3O[C@H](CO)[C@@H](O)[C@H]3O)[nH]c2c1	.	-6	.	0.2%	8.2	6	-4

A second format for four compounds above:
Each structure is followed by: TRPV1 PAM, D2 PAM, Sfp PPTase inh, PINK1 expr mod, D2 ag, CtBP-E1A blk, Six1-Eya2 inh
COC(=O)C(C)NC(=O)C1CCCN1S(=O)(=O)c1cc(C)c(Cl)cc1C (centres undefined)
→ -10, -6, 1%, -2.7%, -3.9, 0, 8
O=C(O)CCCCCNc1ccc2nsnc2c1[N+](=O)[O-]
→ 13, -23, 89µM*, 0.5%, -3.6, -8, -11
CNc1nc(C)c(C(=O)c2ccc(Cl)cc2)s1
→ -2, 8, 16%, -2.8%, -1.2, -2, -1
COc1cc(NC(=O)c2cccc(Cl)c2)ccc1NC(=O)c1cccs1
→ 4, -12, 10%, 5.1%, -3.9, -15, -11

Next records follow:
SMILES	TRPV1 PAM	D2 PAM	Sfp PPTase inh	PINK1 expr mod	D2 ag	CtBP-E1A blk	Six1-Eya2 inh
COc1ccccc1CC(=O)Nc1nc(-c2ccc(F)c(F)c2)cs1	-9	16	8%	5.1%	0.1	-3	6
CC1CC(C)CN(CCCNC(=O)c2ccc3c(c2)NC(=O)CS3)C1 (centres undefined)	-6	-30	10%	0.8%	-1.1	2	0
CCOC(=O)C(=O)N(C)c1c(CC)nc2c(OCc3cccc(OC)c3)cccn12	.	1	.	3.5%	5.9	-13	3
CC(C)(C)c1nc(Sc2ncccc2[N+](=O)[O-])n[nH]1	.	-1	7%	0.4%	3.0	5	-4
COC(=O)c1sccc1NC(=O)CSCC(=O)O	-20	-7	28%	0.0%	1.2	-4	-1
Cc1cccc(NC(=O)C2CCN(S(=O)(=O)c3cccc4cccnc34)CC2)n1	.	-8	-4%	-0.9%	1.2	-12	1
CC(=O)c1sc(Nc2cccc3ccccc23)nc1C	.	-6	.	2.0%	-5.4	-10	-5
CCC(C)N1CCN(S(=O)(=O)c2ccc3ccccc3c2)CC1 (centres undefined)	-17	-15	-22%	4.1%	-4.7	-6	-8
CC1(Cc2cc(Cl)ccc2C(F)(F)F)C(=O)Nc2cc(F)ccc21 (centres undefined)	.	1	.	8.9%	0.8	3	-9
Cc1sc(NC(=O)c2ccccc2)c(C(c2ccccn2)N2CCN(CCO)CC2)c1C (centres undefined)	0	-12	-23%	1.1%	3.3	-20	-11
Cc1ccc(NC(=O)c2cccs2)cc1[N+](=O)[O-]	-17	-5	-6%	1.0%	-6.7	0	6
O=c1c2c(nc3cc(-c4cccc(F)c4)[nH]n13)CCC2	-2	-5	9%	0.3%	-0.5	0	6
COc1ccc(-c2coc3cc(O[C@@H]4O[C@H](CO)[C@@H](O)[C@H](O)[C@H]4O)c(OC)cc3c2=O)cc1	.	-13	.	0.0%	-4.1	9	-1
Cc1nn(C)cc1CN(C)C(=O)c1sc2cccc(Cl)c2c1Cl	-3	-9	-6%	1.3%	0.3	5	-2
CC1=C(C(=O)N(C(C)C)C(C)C)CC(CC(=O)NC2CCCC2)C(=O)N1Cc1ccc(C(C)(C)C)cc1 (centres undefined)	.	-9	.	2.6%	-4.3	1	-2
CCCCNc1nc2c(c(=O)[nH]c(=O)n2C)n1CCOc1ccccc1	.	-10	1%	7.3%[38.3 µM]	-1.1	4	3
COc1cc2c(cc1OC)CN(C(=O)CN1CCN(S(=O)(=O)c3ccc(C)c(C)c3)CC1)CC2	-12	-3	18%	-1.9%	2.3	-8	-12
CCCCCC(=O)N1C[C@H](O)[C@@H](n2cc(COC(=O)c3ccccc3)nn2)C[C@@H]1c1ccc(Cl)cc1	.	1	.	-0.1%	1.0	2	-1
Nc1nc2n(n1)C(c1c(F)cccc1Cl)CC(c1ccc(F)cc1)N2 (centres undefined)	13	-5	9%	0.1%	0.1	-2	4
Cc1cccc(N2C(=S)NC3c4ccccc4OC2(C)C3C(=O)N(C)C)c1 (centres undefined)	1	-5	2%	5.4%	-3.6	6	-2
COc1ccc(-c2c(-c3cc(OC)cc(OC)c3)n(C)c3ccc(Br)cc23)cc1	11	-2	.	1.6%	-2.5	-2	-8
O=C(NNC(=O)c1ccccc1-c1ccccc1C(=O)O)c1ccccc1	3	0	18%	0.1%	2.4	10	-5

Screens: PubChem, National Center for Advancing Translational Sciences (NCATS)
